# miR-21 FLuc = raises the signal of a miR-21 reporter; HeLa miR-21 FLuc reporter, luciferase, 48 h; Potency, µM (highest dose often 38.3 µM), for the others: at the highest dose reporter change, positive = more light; 340,000 tested, under 10 active; active = well fitted rising curve with a large enough effect; inconclusive = small, poorly fitted or top-dose-only effect; inactive = no such curve, though single readings can be large or run the other way;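 note: % of control where 0% means no effect; miR-21 action dims this reporter so a rising signal means less miR-21 action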
#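 HeLa cells stably expressing CMV-driven firefly luciferase with a downstream miR-21 binding sequence, endogenously expressing miR-21, were treated with titrations (up to about 40uM final) for 48 hours at 37 degree Celsius. Luciferase luminescence was read after lysis.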
# Rango complex inh = inhibitors of Rango-importin beta complex formation; Potency, µM (series often up to 92.2 µM), for inactives: at the highest dose inhibition of complex formation; Q14974; AID 540263; Rango CFP/YFP FRET sensor + importin beta, 45 min; 340,000 tested, 0.031% active; active = rising FRET ratio curve, often small or poorly fitted; inconclusive = mostly compound fluorescence or quenching in the first reads; inactive = flat curves in all reads;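 note: potency is the fitted concentration of half-maximal effect; 0% = DMSO wells and 100% = buffer wells lacking importin beta; nearly all actives have a fitted effect of over 15% in size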
#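 Inhibition scored from the CFP 486 nm/YFP 530 nm FRET ratio 45 min after adding 0.125 microM importin beta to 50 nM Rango biosensor preincubated 5 min with compound (room temperature, PBS with DTT, Tween-20, BSA). No-importin wells as positive control.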
# Rango dissoc inh = inhibition of RanGTP-driven Rango-importin beta dissociation; O95149+P62826; Biochemical FRET Rango-importin beta, RanGTP-induced dissociation; Potency, µM (doses to about 46.1 µM), without a hit: top-dose activity change, negative = inhibition; 340,000 tested, 0.071% active; AID 540253; active means falling FRET ratio curve, often poorly fitted, with flat reads before Ran was added; inconclusive means other falling curves, or compound fluorescence or quenching; inactive means flat or rising ratio curve;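 note: potency is the fitted concentration of half-maximal effect; % of control where 0% means no effect; nearly all actives have a fitted effect of over 45% in size; -100% = wells without RanGTP and RCC1; the record marks most hits as doubtful in a second field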
#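 Rango FRET biosensor (snurportin-1 IBB flanked by N-terminal EYFP and C-terminal CFP10) at 0.1 uM, with 0.25 uM importin beta in PBS, 1mM DTT, 0.02% Tween-20, 0.1% BSA. 0.6 uM Ran, 2mM GTP and 0.2 uM RCC1 were then added for 45 min at room temperature. Inhibition read as loss of FRET rise.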
# GLA inh pH 4.5 = inhibitors of human alpha-galactosidase A at pH 4.5; purified enzyme, 4-MU-alpha-Gal fluorescence, pH 4.5; activity change, negative = inhibition, % at 105 µM; 230,000 tested, under 10 active; AID 1467; inconclusive = small, poorly fitted or top-dose-only inhibition, or a rising curve; inactive = flat fitted curve, though single readings scatter; no compound was filed as active;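 note: 0% = full activity with enzyme and -100% = basal without enzyme; dose as in the result columns while the protocol names 77 µM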
# Target sequence (P06280 whole entry, looked up): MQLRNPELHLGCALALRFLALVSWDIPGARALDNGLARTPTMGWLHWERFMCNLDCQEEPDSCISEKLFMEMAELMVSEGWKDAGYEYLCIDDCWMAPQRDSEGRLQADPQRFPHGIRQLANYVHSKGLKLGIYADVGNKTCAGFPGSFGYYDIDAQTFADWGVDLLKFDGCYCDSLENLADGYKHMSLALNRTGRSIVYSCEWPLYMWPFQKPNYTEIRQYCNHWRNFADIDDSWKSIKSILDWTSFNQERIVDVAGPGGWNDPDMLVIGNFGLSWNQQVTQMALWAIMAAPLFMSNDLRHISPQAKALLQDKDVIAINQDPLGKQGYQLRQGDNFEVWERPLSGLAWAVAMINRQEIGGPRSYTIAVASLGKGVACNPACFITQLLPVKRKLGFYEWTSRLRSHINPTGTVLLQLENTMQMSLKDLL
# Starred values were filed as active, the others as inactive; ? = inconclusive; . = not tested or not shown; & = joins results of further samples. The list is partial; count on the stated rates, not on these rows.
# Results follow in this order: miR-21 FLuc, Rango complex inh, Rango dissoc inh, GLA inh pH 4.5
Oc1c(Br)c(Br)c(Br)c(Br)c1Br
→ ., 3.7%, -8%, .
Clc1ccc2[nH]c3c(c2c1)CCNC3
→ -28%, -2.7%, 23%, .
COc1ccc(C(=O)OC2CC[C@@]3(C)C4CCC5[C@]6(O)CC(O)[C@@]7(O)C(CN8CC(C)CCC8[C@@]7(C)O)[C@]6(O)C[C@@]53O[C@]24O)cc1OC (stereo partly drawn)
→ -20%, -3.1%, -10%, -1
CCN(CC)C(=O)COc1cc(C)cc2oc(=O)c3c(c12)CCCC3
→ 0%, 8.3%, 4%, .
CC(NC(=O)N1CC1(C)C)c1ccccc1 (stereo not drawn)
→ ., -0.4%, 1%, .
Cc1cc(NC(=O)COC(=O)c2c(C)nn(Cc3ccccc3Cl)c2Cl)no1
→ -7%, 0.1%, 1%, 5
CCC(COC(=O)c1cc(OC)c(OC)c(OC)c1)(c1ccccc1)N(C)C (stereo not drawn)
→ -9%, 1.0%&1.5%&3.3%, 1%&0%&-18%, -2&-2
CCSc1nnc([C@@H](N)Cc2ccccc2)o1
→ -6%, 3.4%, 0%, 2
CC/C(=N\NC(=O)c1ccccc1O)c1c(O)n(C2CCCCC2)c(=O)[nH]c1=O
→ -15%, -3.4%, 2%, .
Cc1cc(CN(C)C)c(OC(=O)N(C)C)cc1C
→ -1%, 2.6%, 10%, ?
O=C1NC(=O)N(c2ccc(Cl)cc2)C(=O)/C1=C/c1coc2ccc(O)cc2c1=O
→ -1%, ?, 8%, -4
CCN1C(=O)C(=Cc2ccc(C)s2)C(=O)N(CC)C1=S
→ -35%, ?, ?, -4
CCCCn1c(O)c(/C(CC)=N/N2CCCCC2c2cccnc2)c(=O)[nH]c1=S (stereo not drawn)
→ 9%, 5.6%, 11%, -4
Cc1ccc(N)cc1Cl
→ ., -3.0%, -5%, .
COC(=O)C1=C(c2ccc(S(C)(=O)=O)cc2)C[C@@H]2CC[C@H]1N2C(=O)NC(C)C
→ ., 6.7%, 2%, .
CCOc1ccc(-n2c(O)c(C=NCCN3CCNCC3)c(=O)[nH]c2=O)cc1
→ -2%, -0.1%, 1%, 0
CCC1CCCCN1P(=O)(c1ccc(C)o1)C(C)(C)C (stereo not drawn)
→ -1%, -1.1%, -14%, -2
Cn1cc(NC(=O)CCl)cn1
→ 22%, -1.7%, -3%, 6
COC(=O)C1C(O)CC2CCC1N2C (stereo not drawn)
→ ., -0.1%, -20%, .
COc1ccc(-n2c(CNCCc3ccc(C)cc3)nc3ccccc3c2=O)cc1
→ -10%, -0.1%, 3%, .

# Next part, overlapping the part above by 6 compounds.
# Results follow in this order: miR-21 FLuc, Rango complex inh, Rango dissoc inh, GLA inh pH 4.5
COC(=O)C1=C(c2ccc(S(C)(=O)=O)cc2)C[C@@H]2CC[C@H]1N2C(=O)NC(C)C
→ ., 6.7%, 2%, .
CCOc1ccc(-n2c(O)c(C=NCCN3CCNCC3)c(=O)[nH]c2=O)cc1
→ -2%, -0.1%, 1%, 0
CCC1CCCCN1P(=O)(c1ccc(C)o1)C(C)(C)C (stereo not drawn)
→ -1%, -1.1%, -14%, -2
Cn1cc(NC(=O)CCl)cn1
→ 22%, -1.7%, -3%, 6
COC(=O)C1C(O)CC2CCC1N2C (stereo not drawn)
→ ., -0.1%, -20%, .
COc1ccc(-n2c(CNCCc3ccc(C)cc3)nc3ccccc3c2=O)cc1
→ -10%, -0.1%, 3%, .
CCN(C(=O)Oc1ccccc1)c1ccc(C(O)(C(=O)OC)C(F)(F)F)cc1 (stereo not drawn)
→ 1%, 4.7%, -7%, 3
CNC(=O)Oc1cccc2ccccc12
→ -8%, -0.3%, 2%, 1
O=c1[nH]c(=O)n(Cc2ccco2)c(O)c1/C=N/N1CCCCC1
→ -4%, ?, -26%, 0
COC(=O)C1=C(c2ccc3ccccc3c2)C[C@@H]2CC[C@H]1N2C(=O)NCc1ccc(F)cc1
→ ., 8.2%, -19%, .
COC1C(O)C(C)OC(OC2C(Oc3cccc4c(O)c5c(=O)oc6ccc(C)c7c(=O)oc(c34)c5c67)OC(C)C(O)C2O)C1O (stereo not drawn)
→ ., ?, ?, .
O=c1cccc2n1C[C@H]1C[C@@H]2CN2CCCC[C@@H]12
→ -2%, -1.4%, -6%, 1
CC(=O)N1N=C(c2c(O)n(C)c(=O)n(C)c2=O)CC1c1ccccc1 (stereo not drawn)
→ 21%, -0.1%, 9%, 2
CCOc1ccc(CN2CCCC(C(=O)c3ccccc3OC)C2)cc1 (stereo not drawn)
→ 8%, 6.1%, 9%, .
COP(=O)(OC)C(NC(=O)c1ccc(C)cc1)C(Cl)(Cl)Cl (stereo not drawn)
→ -1%, -5.2%, -7%, 1
CN(C)C1=NP(N(C)C)(N(C)C)=NC(c2ccccc2)=N1
→ 1%, 1.0%, -4%, -4
OC12ONC(c3ccccn3)C1N1CCC2CC1 (stereo not drawn)
→ 8%, ?, -12%, -3
CCOC(=O)c1c(C)n(Cc2ccccc2)c2ccc(OCC(O)Cn3nc(C)cc3C)cc12 (stereo not drawn)
→ 11%, -1.1%, -9%, -7
COc1cc2oc(=O)c(CC(=O)N3C[C@H]4C[C@@H](C3)c3cccc(=O)n3C4)c(C)c2cc1Cl
→ ., 4.8%, 1%, .
CC(=O)c1ccc2c(c1)C1C(Cl)C(Sc3ccccc3[N+](=O)[O-])CC1C(c1ccccc1[N+](=O)[O-])N2 (stereo not drawn)
→ -4%, -0.8%, -17%, 0
C=CCC1([C@@H](C)CCC)C(=O)NC(=O)NC1=O
→ ., -4.1%, -12%, .
O=P(O)(O)C12CC3CC(CC(C3)C1)C2
→ -5%, 5.4%, 1%, 3
CCN(CC)C(=O)c1ccc(NC(=O)c2c(C)noc2C)cc1
→ ., 3.4%, ?, .
CCOC(=O)C1(CCc2ccccc2)CCN(Cc2cccc3c2OCO3)CC1
→ 5%, 1.0%, -4%, -3
Cc1cc([N+](=O)[O-])c2ccccc2[n+]1[O-]
→ ?, -1.2%, -10%, -2
C[C@]12CCC3C(CC[C@H]4C[C@@H](O)CC[C@]34C)C1C[C@@H](O)C2=O (stereo partly drawn)
→ ., ?, 12%, .
COc1cc(/C=C(/C)[N+](=O)[O-])ccc1OCc1ccccc1Cl
→ ?, -3.9%, -12%, 3
CCn1cc(C=C2C(=O)NC(=O)NC2=O)c2ccccc21
→ -1%, ?, -12%, .
Cc1cc2c(C(F)(F)F)cc(=O)oc2c2c1NCCC2
→ -3%, ?, ?, 1
C=CCn1c(O)c(C(CC)=Nc2ccc(NC(C)=O)cc2)c(=O)[nH]c1=O
→ -8%, 2.8%, -10%, -1
C=CCn1c(O)c(C(CC)=NC2CC2)c(=O)[nH]c1=O
→ -1%, -3.7%, 0%, 3
CC(=O)C1CCC2C3C(N4CC4)CC4=CC(=O)CCC4(C)C3CCC12C (stereo not drawn)
→ ., -3.3%, -29%, .
CC(C)C[C@H]1C(=O)N2CCC[C@H]2[C@]2(O)O[C@](NC(=O)C3C=C4c5cccc6[nH]c(Br)c(c56)C[C@H]4N(C)C3)(C(C)C)C(=O)N12 (stereo partly drawn)
→ ., ?, ?, .
Cc1ccc(-n2c(O)c(C=NCc3ccccn3)c(=O)[nH]c2=S)cc1
→ 7%, -5.4%, 2%, 3
Cc1ccc(CN2CCC3CCC(C3)C2)c(O)c1 (stereo not drawn)
→ ., -0.5%, -2%, .
O=C1NC(=O)C(CCc2ccncc2)(Cc2ccc([N+](=O)[O-])cc2)C(=O)N1
→ 3%, 0.5%, -8%, -6
OC(CN1CCCCC1)c1c[nH]c2ccccc12 (stereo not drawn)
→ -1%, 1.8%, -4%, .
CC1OC(OC2CC(O)C3(CO)C4C(O)CC5(C)C(C6=CC(=O)OC6)CCC5(O)C4CCC3(O)C2)C(O)C(O)C1O (stereo not drawn)
→ ., 0.4%, 2%, .
C[C@]1(O)CC[C@H]2[C@@H]3CCC4=CC(=O)CC[C@]4(C)[C@@]3(F)[C@@H](O)C[C@@]21C
→ ., -1.9%, 0%, .
Cc1cc(S(=O)(=O)NCc2ccccc2)ccc1OCC(=O)N1CCN(C)CC1
→ 0%, 0.7%, -14%, 3
Cc1ccc(NC(=O)[C@@H](NC(=O)N2C[C@H]3C[C@@H](C2)c2cccc(=O)n2C3)C(C)C)cc1
→ 2%, 0.0%, -2%, .
O=S(=O)(c1ccccc1)N1CC1c1ccccc1 (stereo not drawn)
→ -37%, -0.9%, 7%, -3
O=Cc1cn(Cc2ccccc2[N+](=O)[O-])c2ccccc12
→ -1%, 0.6%, -2%, -5
CC(O)CNc1ccc([N+](=O)[O-])c2cccnc12 (stereo not drawn)
→ -19%, 1.0%, -3%, -6
O=C(CCC(=O)N1CC2C[C@@H](C1)Cn1c2cccc1=O)NCCc1ccccc1F
→ -5%, -3.1%, -14%, .
COc1ccc(C(=O)N2CCOCC2)cc1S(=O)(=O)N1CCC(C)CC1
→ -2%, -2.9%, -4%, 8
CCCCCCCCCCOC(=O)CCN1CC1
→ ., -2.6%, 16%, .
O=C(Cc1ccccc1)N1CCN(Cc2cccc(Cl)c2)CC1
→ -7%, 0.4%, -18%, .
Cc1cc(S(=O)(=O)NCC(C)C)ccc1OCC(=O)N1CCN(Cc2ccccc2)CC1
→ 13%, -5.2%, ?, -9
COc1ccc(CCN(C)Cc2c(F)cccc2F)cc1OC
→ -6%, -0.8%, 4%, 8
Clc1ccc(NC2=NCCCS2)cc1Cl
→ -18%, 2.2%, 4%, .
COc1ccc(CCN)cc1O
→ ., -1.3%, -13%, 2
COC(=O)C1=C(c2ccc(S(C)(=O)=O)cc2)C[C@@H]2CC[C@H]1N2C(=O)NCCNC(C)=O
→ ., -1.1%, ?, .
C[C@]12CCC(=O)C=C1C=C[C@@H]1[C@@H]2CC[C@@]2(C)[C@H]1CC[C@@]2(O)CCC(=O)O
→ ., 1.6%, 0%, .
Cc1cc(C=O)c(C)n1CC1CCCO1 (stereo not drawn)
→ -2%, 0.3%, 2%, -3
CS(=O)(=O)CCN1CC2CCCC(C2)C1
→ ., 6.9%, 6%, .
CN1/C(=C\C=C2C(=O)NC(=O)NC2=O)C(C)(C)c2ccccc21
→ -7%, ?, ?, -30
Cc1ccc(Cl)cc1N1CCN(C(=O)c2cn(C)c(=O)c3c2c2ccccc2n3C)CC1
→ -3%, 2.7%, -6%, ?
CCc1ccc(N2C(=O)NC(=O)/C(=C/c3ccsc3)C2=O)cc1
→ -3%, ., ., -1
CN(C)P1(N(C)C)=Nc2c(c(N)nn2C)C(c2ccccc2)=N1
→ -12%, 4.0%&-0.5%, 5%&2%, -5
C1=C(c2c[nH]c3ccccc23)CCNC1
→ -2%, ., ., -9
CCCCC1(CCC)C(=O)NC(=S)NC1=O
→ ., -0.6%, -8%, .
CCOC(C(=O)OCCCN(CC)CC)(c1ccccc1)c1ccccc1
→ -4%, -0.9%, 13%, 5
O=S(=O)(NC1CN2CCC1CC2)c1ccc(Cl)cc1 (stereo not drawn)
→ -4%, -5.1%, 13%, .
COC(=O)c1cc2c(s1)=NC=NP=2(N1CCOCC1)N1CCOCC1
→ -3%, -0.2%&2.0%, 2%&-13%, 2
Cc1c(N=Nc2c(O)n(C)c(=O)n(C)c2=O)c(=O)n(-c2ccccc2)n1C
→ -6%, -1.9%, 1%, 0
Cc1nc2ccccc2c(=O)n1-c1cc([N+](=O)[O-])cc([N+](=O)[O-])c1
→ 0%, 3.6%, 29%, .
COC(=O)C1=C(c2cccc(OC)c2OC)C[C@@H]2CC[C@H]1N2C(=O)NCc1cccc2ccccc12
→ ., 2.2%, 11%, .
Cc1c(P(=S)(c2ccccc2)c2ccccc2)[n+]2ccccc2n1C
→ 28%, ?, -5%, 7

# Assay outcomes from PubChem.
